From PubChem BioAssay
KSHV LANA nucl: inhibitors of KSHV LANA binding to nucleosomes. FITC-LANA1-23 / chicken nucleosome fluorescence polarization; stronger effect = lower value. AID 720717. z-score (concentration not given with the values). 0.3% of 51,000 active;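 active means both repeat wells score below -2 in polarization z-score versus plate sample wells, excluding overly bright wells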;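 further: 100 nL library stock added to about 30 µL; numbers are from one replicate; some results filed as inactive read as strong as hits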
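Test system: purified chicken nucleosomes with FITC-labelled LANA N-terminal peptide (1-23); Input: 240 nM purified chicken nucleosomes (480 nM peptide binding sites), final; Medium: TEN-BT buffer, pH 7.5; Timing: 10–45 min, room temperature; Technique: fluorescence polarization, 480 nm excitation, 535 nm parallel and perpendicular emission; Replication: duplicates.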
Ab BasE inh: BasE siderophore biosynthesis inhibition; purified BasE, fluorescence polarization binding displacement; 0.1% of 84,000 active; inhibition, % (no concentration beside the values);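 active means both replicates above 25% with normal brightness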;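 further: 0% = negative plate control signal and 100% = positive plate control signal; stock transfer was 100 nL into about 30 µL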
Active calls of the source: *; / = not tested or not shown.

SMILES | KSHV LANA nucl | Ab BasE inh
CCOC(=O)Cc1csc(SCN2C(=O)c3ccccc3C2=O)n1 | / | -0.1
CCOc1cc(/C=N/n2c(C)nnc2-n2nc(C)cc2C)cc(Br)c1O | 0.17 | 0.4
CCCN1CCc2nc(N3CCOCC3)ncc2C1 | -0.32 | -0.2
CC(NC=O)c1nc2ccccc2n1C (configuration not stated) | / | -1.2
O=C(Oc1ccccc1C(=O)O)c1ccccc1O | 1.2 | /
CSc1cccc(NC(=O)C2CCCN2S(=O)(=O)c2ccccc2)c1 (configuration not stated) | -0.58 | -0.6
CCOC(=O)c1c(NC(C)=O)no[n+]1[O-] | / | -0.6
Cc1ccc2c(c1)CCCN2CC(=O)NCC(F)(F)F | / | -0.1
CC(Sc1nc(C2CC2)n(-c2ccccc2)n1)C(=O)NCc1ccc2c(c1)OCO2 (configuration not stated) | / | -1.6
CS(=O)(=O)c1ccc(Cl)c(NC(=O)C2CCCC2)c1 | / | 1.4
CC(C)CCn1c(SCc2ccccc2F)nc2nccnc2c1=O | 0.2 | 3.3
CC1(C)OC(=O)C(C#N)=C1/C=C/c1ccco1 | -0.033 | 0.6
Cc1noc(C)c1CSc1ncccc1C(=O)N1CCN(S(=O)(=O)c2ccccc2C#N)CC1 | / | 0.9
CC(=O)NCCOc1cc(C)ccc1C(C)C | -0.75 | -0.3
Cn1c(=O)n(Cc2ccc(F)cc2)c(=O)c2c1nc1oc(-c3ccc(Cl)cc3)cn12 | 2 | -2.2
COC(=O)C1=C(Nc2ccc(OC(=O)Nc3ccc(OC(F)(F)F)cc3)cc2)CSC1 | / | 1.7
OCC(CO)(CO)N=Cc1cc(Br)ccc1O | -0.21 | 1.0
CSc1nsc(SC)c1NC(=O)N(C)C | -0.34 | /
CCOC(=O)COc1ccccc1C1C(C(=O)OCC)=C(N)Oc2n[nH]c(-c3ccccc3)c21 (configuration not stated) | 0.45 | -2.2
CC1CCCCC1NS(=O)(=O)c1ccc(Cl)cc1 (configuration not stated) | 0.038 | -0.8

By substructure: those above containing four or more nitrogen atoms (6)
SMILES | KSHV LANA nucl | Ab BasE inh
CCOc1cc(/C=N/n2c(C)nnc2-n2nc(C)cc2C)cc(Br)c1O | 0.17 | 0.4
CCCN1CCc2nc(N3CCOCC3)ncc2C1 | -0.32 | -0.2
CC(Sc1nc(C2CC2)n(-c2ccccc2)n1)C(=O)NCc1ccc2c(c1)OCO2 (configuration not stated) | / | -1.6
CC(C)CCn1c(SCc2ccccc2F)nc2nccnc2c1=O | 0.2 | 3.3
Cc1noc(C)c1CSc1ncccc1C(=O)N1CCN(S(=O)(=O)c2ccccc2C#N)CC1 | / | 0.9
Cn1c(=O)n(Cc2ccc(F)cc2)c(=O)c2c1nc1oc(-c3ccc(Cl)cc3)cn12 | 2 | -2.2

Going on with the list.
SMILES | KSHV LANA nucl | Ab BasE inh
Oc1oc(-c2ccccc2)nc1/C=N/c1ccccn1 | / | 4.5
N=c1c2c3c(sc2ncn1CCN1CCOCC1)CCCCC3 | -1.1 | 1.5
NC(=O)C1CC(=O)N(Cc2ccccc2)C1 (configuration not stated) | 0.39 | /
CC(C)Cn1c(SCC(=O)N2CCCC2=O)nc2cc(Cl)ccc2c1=O | / | -0.3
CC(C)Oc1ccc(Cc2cnc(=S)[nH]c2N)cc1 | -0.43 | -0.3
O=C(c1ccc(F)cc1)c1c[nH]c(C(=O)NCc2ccco2)c1 | -0.88 | /
C=CCN(C(=O)c1ccccc1)c1ccc(OC)cc1 | -0.77 | 2.7
O=C(NC1CCCCC1)c1ccco1 | -1.6 | -2.7
c1ccc2cc3c(Nc4ccc(N5CCOCC5)cc4)ccnc3cc2c1 | / | 1.5
O=C1c2ccccc2C(=O)N1CCCn1nnc(-c2ccc(N3CCOCC3)cc2)n1 | 0.56 | 0.6
CCOc1ccc(-n2c(N)c3c(N)nc(N4CCOCC4)c(C#N)c3c(C#N)c2=S)cc1 | / | 4.5
Cc1nn(-c2ccc(F)cc2)c(-n2cccc2)c1C(=O)NCC(C)c1ccccc1 (configuration not stated) | -0.26 | -1.1
CCOC(=O)C1=C(C)NC(=O)CC1c1ccccc1C(F)(F)F (configuration not stated) | -1.6 | /
Cc1ccc(Oc2ncccc2C(=O)n2ccc(-c3cccs3)n2)cc1 | 0.34 | -0.3
Cc1ccc(C(=O)N2C(C)CCCC2C)c(Cl)c1 (configuration not stated) | -0.25 | 0.9
CCSc1nnc(NC(=O)C2Cc3ccc(C)cc3C(=O)O2)s1 (configuration not stated) | -1.2 | 2.5
O=C(O)/C=C/c1cccc(Oc2ccccc2)c1 | -1.4 | 1.1
CCS(=O)(=O)N1Cc2ccccc2CC1C(=O)N1CCN(c2ccccc2)CC1 (configuration not stated) | / | 2.3
CN(NC=C(C#N)C#N)c1cccc(F)c1C#N | -0.079 | -0.9
Cc1cccc(-c2cc3nc4c(c(N5CCN(Cc6ccc7c(c6)OCO7)CC5)n3n2)CCCC4)c1 | -0.76 | 0.8
Cc1ccc(C)c(Cn2c(CCCO)nc3ccccc32)c1 | -0.24 | -1.8
CCC1(CO)CSC(Nc2ccc(Cl)cc2)=N1 (configuration not stated) | / | 1.6
Cc1nc(COC(=O)c2ccc(CO)cc2)cs1 | / | -0.5
CN(C)C(=S)N(C#N)c1nc(N(C)C)nc(N(C)C)n1 | / | 1.5
CC(NC(=O)CSc1ncccc1C(=O)O)C1CC2CCC1C2 (configuration not stated) | / | 3.2
O=C(CN(CC(=O)NC1CC1)Cc1ccc(Cl)cc1)NC1CC1 | / | -1.0
O=C1CC(c2ccccc2)CC(=O)C1=CN1CCOCC1 (configuration not stated) | / | 2.0
COc1ccc(-c2onc(C)c2C)cc1S(=O)(=O)N(C)C(C)CCc1ccco1 (configuration not stated) | / | 1.0
CC(C)(C)P(=Nc1ccc(S(N)(=O)=O)cc1)(N1CCOCC1)N1CCOCC1 | / | 1.3
CC(=O)Nc1ccc(SCC(=O)N2CC(C)CC(C)C2)cc1 (configuration not stated) | / | 4.3
CC1(C)Cc2c(sc3nc(=O)n(Cc4ccco4)c(N)c23)CO1 | 0.79 | 2.7
O=C(CONC1=NCCCCC1)Nc1ccc(OC(F)(F)F)cc1 | / | 2.3
NC(=O)CSc1nnc(COc2ccccc2Cl)n1C1CC1 | / | 2.3
Cc1ccc(NC(=O)c2oc3ccccc3c2C)cc1 | 0.16 | -2.8
Cc1cc(C)cc(NC(=O)NCC(O)c2ccccc2)c1 (configuration not stated) | -0.55 | -0.8
O=C(Nc1nncs1)c1cccc(Cl)c1 | -0.16 | -0.5
NNc1ccc(C(=O)O)cc1 | / | 1.6
O=C(NCc1ccco1)c1noc2c1CCCC2 | -0.82 | 1.7
COc1ccc(S(=O)(=O)NCC(F)(F)F)cc1Br | / | 2.5
CCC(CC)c1nc(Nc2ccccc2)c2ccccc2n1 | / | -1.7
CCN(C(=O)c1cnccc1C(F)(F)F)c1nc2cc(Cl)ccc2s1 | / | 2.3
CCn1cc(CNC(=S)Nc2cccc(Cl)c2C)cn1 | -0.21 | 1.6
CCOc1cc(C(=O)N2CCN=C2SC)cc(OCC)c1OCC | -0.18 | 0.9
COc1cccc(OC)c1C(=O)NC(=S)Nc1ccc2[nH]c(=O)[nH]c2c1 | 1.4 | 1.4
Cc1ccc(CN(C)C(=O)COc2ccccc2C#N)o1 | / | 0.1
N#CC(C#N)=CNc1ccc(S(=O)(=O)c2ccc(NC=C(C#N)C#N)cc2)cc1 | 0.5 | -1.0
COC(=O)c1cc(Cn2cc(C(F)(F)F)cc(Cl)c2=O)oc1C | / | -0.3
Cc1ccc(-c2csc(-c3ccno3)n2)cc1 | 1.8 | -2.4
O=S(=O)(Nc1ccc(N2CCCCC2)cc1)c1ccc(-c2cc(C(F)(F)F)on2)s1 | -0.16 | 0.4
O=C(O)C1C2CCC(C2)C1C(=O)NCCCN1CCCC1=O (configuration not stated) | -0.98 | 1.2
CC(=O)Nc1cccc(-c2nnc(-c3cccc(C)c3)o2)c1 | -0.99 | -21
O=C(OCC(=O)c1ccco1)c1ccc(S(=O)(=O)NCc2ccco2)cc1 | / | 2.4
CCOCCSc1nc(=O)n2cc(C)ccc2n1 | -0.51 | 1.0
O=C(CCNS(=O)(=O)c1ccc2c(c1)OCCO2)NC1CCN(Cc2ccccc2)CC1 | / | 0.2
CN1C(=O)/C(=C2\SC(N3CCOCC3)=NC2=O)c2ccccc21 | 0.19 | 2.0
O=C(OCc1ccco1)c1cc2ccccc2oc1=O | -0.28 | 2.1
CC1(C)COC(CC(=O)c2ccc(Cl)cc2)=N1 | 0.082 | 0.6
CCC(=O)N1c2ccc(S(=O)(=O)CCC(=O)Nc3cccc(-c4ccno4)c3)cc2CC1C (configuration not stated) | 0.21 | -1.4
CC(C)NC(=O)CSc1nnc(Cc2ccccc2)n1Cc1ccco1 | 0.5 | 1.0
CCCCN1C(=O)c2ccc(C(=O)Nc3ccc(S(=O)(=O)N(C)C)cc3)cc2C1=O | / | -4.3

Additional records
SMILES | KSHV LANA nucl | Ab BasE inh
Cc1ccccc1NC(=O)c1cc(=O)[nH]c2ccccc12 | 2.7 | -4.5
Clc1cc(Cl)c2nc(Oc3cccc(N4CCOCC4)c3)sc2c1 | / | 2.4
CCc1ccc2[nH]c3nc(SCC(=O)OC(C)C)nnc3c2c1 | 1.2 | -3.3
O=C(OCCN=C1NS(=O)(=O)c2ccccc21)c1ccccc1 | -0.13 | 1.5
O=C(N1CCOCC1)N1CCc2ccccc21 | 0.21 | -1.8
O=C1C2=C(C(=O)c3ccccc31)C(c1ccccc1O)c1sc(=O)[nH]c1S2 (configuration not stated) | / | -0.3
CCOC(=O)N1CCN(C(=O)CSc2c3c(nc4ccccc24)CCCC3)CC1 | -0.58 | 1.2
CC1CCCCN1c1nn2nnnc2c2ccccc12 (configuration not stated) | / | -2.2
CCOC(=O)CSc1nc(-c2ccc3c(c2)OCO3)ccc1C#N | -1.7 | 2.1
O=C(Nc1ccc(Cl)cc1)c1snnc1-c1ccccc1 | -0.33 | /
CC1Oc2ccccc2C=C1/C=C(\C#N)C(=O)N1CCCCC1 (configuration not stated) | 1.3 | -0.1
Cc1c(F)cccc1NS(=O)(=O)c1ccc2c(c1)CCN2S(C)(=O)=O | 0.8 | 0.3
CCNC(=O)c1cc(=O)[nH]c2ccccc12 | / | -1.7
Cc1nnsc1C(=O)Oc1ccc(-c2n[nH]nc2C#N)cc1 | / | 9.8
CCOC(=O)c1cnc2c(C)c(C)ccc2c1NCCCCCO | -0.76 | 1.1
CC(=O)Nc1ccc(S(=O)(=O)N2CCCCC2C(=O)O)cc1 (configuration not stated) | / | 0.1
CN(C)C(=S)NCCC1=CCCCC1 | / | 1.2
CCOC(=O)C1=C(O)/C(=C/c2ccco2)SC1=Nc1cccc(Cl)c1 | 0.4 | -3.6
O=C(O)c1csc(-c2ccccc2)n1 | / | 0.9
CS(=O)(=O)N1CCCc2cc(C(=O)CSc3nnc(COc4ccccc4Cl)o3)ccc21 | / | 2.2
O=S1(=O)CCC(N=Nc2c(O)[nH]c3ccc(Br)cc23)C1 (configuration not stated) | / | 2.0
Cc1ccccc1-c1nc(-c2ccccn2)no1 | 0.0085 | -1.7
CCOc1ccccc1NC(=O)N1CCCC(c2nc3c(nnn3Cc3ccc(C)cc3)c(=O)[nH]2)C1 (configuration not stated) | 0.8 | 2.5
O=c1[nH]n(-c2ccccn2)c(=O)c2ccccc12 | / | 1.0
Cc1nc2c(C(=O)NCCN3CCOCC3)cnn2c(C)c1Cc1cccc(Cl)c1 | -0.55 | -1.6
CCCC(=O)Oc1ccc2oc(-c3ccc(OC)cc3)cc(=O)c2c1 | / | -1.4
COc1cccc(C(=O)N2CCN(Cc3cccc(C)c3)CC2)c1OC | 0.84 | -1.1
CC(C)C(=O)NC(c1ccc(N(C)C)cc1)c1ccc2cccnc2c1O (configuration not stated) | -0.65 | 2.5
CC(=O)N1Cc2ccccc2CC1C(=O)Nc1ccc(S(=O)(=O)N(C)C)cc1 (configuration not stated) | / | -1.7
CCCNC(=O)Nc1ccccc1C | 2.4 | -1.5
CP(C)(=O)c1ccccc1C(=O)O | 0.67 | -2.2
CN(C)c1ccc(CNCCC2(O)CCOC(C)(C)C2)cc1 (configuration not stated) | -0.25 | 1.4
N#CCOC(=O)c1nc(-c2ccccc2)n(-c2ccccc2)n1 | / | -2.8
Cc1cccc(N=C2NC(=O)/C(=C3/C(=O)N(CC(=O)O)c4ccccc43)S2)c1C | / | 3.5
Cc1cc(C)c2c(n1)sc1c(Sc3nnc(-c4cccs4)o3)ncnc12 | -0.06 | 1.1
O=S(=O)(NCC1CN(Cc2ccccc2)CN(Cc2ccccc2)C1)c1ccc(Cl)cc1 | / | 0.6
CCCNC(=O)Nc1ccc2c(c1)OCCO2 | -0.42 | 5.8
CCNC(=S)N(CCc1c(C)[nH]c2ccccc12)Cc1ccco1 | -0.3 | 3.8
C=C(C)C(=O)OC1CC(C)=C2C(=O)C=C(C)C2C2OC(=O)C(C)(OC(=O)C(=C)C)C12 (configuration not stated) | 0.67 | -1.0
O=C(OCc1cnc(Cl)s1)c1ccc(Cl)cc1 | -0.68 | /

Some of the entries above, set out differently:
> Cc1nc2c(C(=O)NCCN3CCOCC3)cnn2c(C)c1Cc1cccc(Cl)c1
  KSHV LANA nucl = -0.55
  Ab BasE inh = -1.6
> CCCC(=O)Oc1ccc2oc(-c3ccc(OC)cc3)cc(=O)c2c1
  KSHV LANA nucl = /
  Ab BasE inh = -1.4
> COc1cccc(C(=O)N2CCN(Cc3cccc(C)c3)CC2)c1OC
  KSHV LANA nucl = 0.84
  Ab BasE inh = -1.1
> CC(C)C(=O)NC(c1ccc(N(C)C)cc1)c1ccc2cccnc2c1O (configuration not stated)
  KSHV LANA nucl = -0.65
  Ab BasE inh = 2.5

These rows are one share of the data; the hit share may differ from the screen's.
